Source: PubChem BioAssay (National Center for Advancing Translational Sciences (NCATS))
Cruzain inh Det = inhibitors of Trypanosoma cruzi cruzain with detergent. hit rate 0.43% among 200,000. Potency, µM, inactives show max response, negative = inhibition, hits mostly inhibitors. P25779. purified cruzain, Z-FR-AMC fluorescence, 0.01% Triton. AID 1478; active means well fitted curve in the direction sought with a large enough effect; inconclusive means small, poorly fitted or top-dose-only effect, or another doubt; inactive means no such curve, though single readings can be large; an effect the other way counts as inactive or inconclusive;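 further: plate controls were neutral wells for no effect and buffer without enzyme for full effect; nearly all actives have a fitted effect of over 40% in size; top concentration of the series not given in the record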
Target sequence (P25779 123-467 limits assumed): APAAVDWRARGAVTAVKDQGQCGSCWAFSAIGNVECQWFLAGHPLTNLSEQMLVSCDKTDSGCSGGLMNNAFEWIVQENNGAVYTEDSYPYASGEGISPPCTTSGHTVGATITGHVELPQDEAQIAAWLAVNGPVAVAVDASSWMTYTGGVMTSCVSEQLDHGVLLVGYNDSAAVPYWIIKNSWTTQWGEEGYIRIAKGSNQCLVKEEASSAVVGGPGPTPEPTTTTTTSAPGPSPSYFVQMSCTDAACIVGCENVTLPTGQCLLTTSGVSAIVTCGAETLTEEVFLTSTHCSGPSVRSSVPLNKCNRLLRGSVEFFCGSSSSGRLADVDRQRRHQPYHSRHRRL
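Z-FR-AMC hydrolysis (2 uM substrate) by cruzain (1.5 nM) monitored kinetically at ex 360/em 450 nm after 15 min room-temperature compound exposure; 0.01% Triton X-100, pH 5.5, 5 mM DTT.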
LASV entry inh = inhibitors of Lassa virus binding or cell entry; hit rate 1.2% among 300,000; Potency, µM (doses to about 37.9 µM), for the others: at the highest dose activity change, negative = inhibition, usual class: inhibitors; Lassa virus pseudotype entry inhibition, cell reporter; control for the full effect not named in the record; AID 540256; active means well fitted inhibition curve with a large enough effect; inconclusive means small, poorly fitted or top-dose-only effect, or effect the other way; inactive means flat fitted curve, though single readings scatter; tested in HEK293 cells; further: on the % scale 0 is the no-effect control and ±100 the full control effect; nearly all actives have a fitted effect of over 50% in size; luciferase read-out
NS1 inh = blocks influenza NS1 protein function; AID 2326; Potency, µM (doses to about 46.1 µM), for the others: at the highest dose activity, positive = more growth; S. cerevisiae slowed by influenza A NS1, growth recovery by OD600; hit rate 0.4% among 270,000; further: actives are rising curves; nearly all actives have a fitted effect of over 50% in size
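A cell-based growth assay was used: compounds that relieve NS1-induced slow growth of budding yeast raise OD600. Assay medium was yeast nitrogen base with ammonium sulphate and -URA supplement, pH 6.0, with 2% galactose.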
Cruzain inh noDet = cruzain (T. cruzi) inhibition without detergent. P25779. purified cruzain, Z-FR-AMC fluorescence, no detergent. Potency, µM, without a hit: max response, negative = inhibition, actives largely listed as inhibitors. hit rate 2.3% among 200,000. AID 1476; active means well fitted curve in the direction sought with a large enough effect; inconclusive means small, poorly fitted or top-dose-only effect, or another doubt; inactive means no such curve, though single readings can be large; an effect the other way counts as inactive or inconclusive;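 further: plate controls were enzyme without inhibitor for no effect and buffer without enzyme for full effect; nearly all actives have a fitted effect of over 40% in size; top concentration of the series not given in the record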
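Detergent-free condition (0.00005% Triton X-100) in acetate buffer pH 5.5 with DTT. 1.5 nM enzyme and compound were pre-mixed 15 min, then 2 uM Z-FR-AMC substrate added; reaction progress from fluorescence change between first and third reads (60 s).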
RE007 growth inh = less growth of the S. pombe RE007 Vpr strain. S. pombe RE007 Vpr strain, BacTiter-Glo ATP luminescence, 24 h; control for the full effect not named in the record. Potency, µM (titrated, usually from 92.2 µM), without a hit: at the highest dose activity change, negative = less growth. hit rate 0.21% among 360,000; active = well fitted falling curve with a large enough effect; inconclusive = small, poorly fitted or top-dose-only effect; inactive = no such curve, though single readings can be large or run the other way;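 further: on the % scale 0 is the no-effect control and ±100 the full control effect; nearly all actives have a fitted effect of over 50% in size; the assay follows cell death caused by Vpr and the record does not say whether a fall means rescue or toxicity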
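Fission yeast RE007 carrying one integrated HIV-1 vpr copy, seeded at OD 0.01 in PMG+AL medium with 23 nL pinned compound. Grown 24 h at 30 degrees; viability read by BacTiter-Glo luminescence after 5 min.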
SARS PLpro yeast = blocks SARS-CoV papain-like protease in a yeast assay | S. cerevisiae expressing SARS-CoV PLpro, growth rescue; control for the full effect not named in the record | Potency, µM (doses to about 32.9 µM), without a hit: top-dose activity, positive = growth rescue | hit rate 0.19% among 330,000; further: 0% is about no effect; nearly all actives have a fitted effect of over 55% in size; growth read by luminescence after 48 h
Marburg entry inh = blocks Marburg virus binding to or entry into cells; Marburg virus pseudotyped entry inhibition, cell reporter; control for the full effect not named in the record; about a third of the inactives were read at about 46 µM; Potency, µM (doses to about 37.8 µM), for the others: at the highest dose activity change, negative = inhibition, usual class: inhibitors; hit rate 1.8% among 300,000; AID 540276; active = well fitted inhibition curve with a large enough effect; inconclusive = small, poorly fitted or top-dose-only effect, or effect the other way; inactive = flat fitted curve, though single readings scatter; tested in HEK293 cells; about a fifth of its hits are not listed in these tables; further: on the % scale 0 is the no-effect control and ±100 the full control effect; luciferase read-out
2A StopGo = FMDV 2A StopGo reporter, luciferase signal | human cells with a luciferase reporter of 2A StopGo recoding; control for the full effect not named in the record | Potency, µM (series often up to 57.9 µM), for inactives: at the highest dose signal change, negative = less light | hit rate 1.2% among 410,000; active = well fitted falling curve with a large enough effect; inconclusive = small, poorly fitted or top-dose-only effect; inactive = no such curve, though single readings can be large or run the other way; tested in HEK293T cells; further: on the % scale 0 is the no-effect control and ±100 the full control effect; nearly all actives have a fitted effect of over 45% in size; luciferase light after 4 h
* marks the source's active call; other numbers are inactive results; ? = inconclusive; . = no result given; [ ] = dose if it differs, or a comment. Unless noted, the call rests on the fitted dose curve; in most records, active means well fitted rising curve with a large enough effect; inconclusive means small, poorly fitted or top-dose-only effect; inactive means no such curve, though single readings can be large or run the other way. Potency means the concentration at half of the fitted maximal effect.

SMILES	Cruzain inh Det	LASV entry inh	NS1 inh	Cruzain inh noDet	RE007 growth inh	SARS PLpro yeast	Marburg entry inh	2A StopGo
O=S(=O)(c1ccc(Cl)cc1)N1CCCN(c2nc3ccc(Cl)cc3s2)CC1	.	21%	-3%	.	4%	-1%	20%	-16%
CCCCCCCCC(=O)N/N=C(\C)c1ccc(O)cc1O	-7.3%	?	-2%	?	13%	?	?	0%
COc1ccc(N(CC(=O)Nc2ccc(S(=O)(=O)N3CCCCC3)cc2)S(C)(=O)=O)cc1OC	-0.7%	0%	-5%	?	-2%	-3%	2%	52%[activator]
O=C(Cc1ccccc1)NCC(=O)N1CCC2(CC1)NCCc1[nH]cnc12	.	.	5%	.	5%	6%	.	-10%
O=C(Nc1ccc2oc(-c3cccnc3)nc2c1)c1ccc(-c2ccccc2)o1	-18%	?	.	-5%	.	.	.	35µM*
Cc1c(Cl)cccc1NC(=S)N1CC2CC(C1)c1cccc(=O)n1C2 (stereo not given)	1.9%	5%	7%	-10%	8%	-4%	13%	-15%
COCCCNC(=O)c1cc2cc3cc(OC)ccc3nc2o1	.	.	1%	.	-20%	-5%	5%	33%[activator]
C=CCn1c(Cc2ccc(OC(C)C)c(Cl)c2)nnc1SCC(N)=O	3.0%	-11%	-56%	8%	1%	3%	4%	-27%
COc1ccc(C2CC(C(F)(F)F)n3nc(C(=O)Nc4c(C)n(C)n(-c5ccccc5)c4=O)c(Cl)c3N2)cc1 (stereo not given)	0.4%	-6%	-17%	?	.	11%	-23%	.
Cc1cc2c(C)nc(N/N=C/c3ccc([N+](=O)[O-])cc3)nc2o1	-6.8%	19%	-3%	1%	-21%	-19%	25%	-5%
CCc1ccc(CNC(=O)CSc2c3c(nc4ccc(Cl)cc24)CCCC3)cc1	-1.5%	0%[46.1 µM]	.	-2%	.	.	?	-26%
O=C(CN1CCCCC1)Nc1ccc(N2CCCCCC2)cc1	.	-6%[46.1 µM]	0%	.	-15%	0%	?	5%
CCCN(CCC)CC(O)CN(c1ccccc1)S(=O)(=O)c1ccc(C)cc1 (stereo not given)	-0.8%	?	-3%	6%	2%	13%	?	12%
O=S(=O)(c1ccccc1)N1CCC(Oc2ccc(-n3cnnn3)cc2)CC1	.	?	-12%	.	-6%	-6%	?	?
O=C(Cc1cccc(C(F)(F)F)c1)Nc1ccccc1N1CCCC1	.	.	-2%	.	-4%	19%	.	-26%
COc1ccc(C(=O)Nc2ccc(-c3n[nH]c(=S)o3)cc2)cc1	.	.	-2%	.	9%	2%	.	45%[activator]
Cc1ccccc1OCCCC(=O)NCc1ccco1	2.4%	12%[14.3 µM]	-11%	-11%	7%	-1%	2%	6%
Cc1ccc(S(=O)(=O)Nc2nnc(C(C)(C)C)s2)cc1	.	.	-15%	.	-5%	0%	.	29%
O=C(CCN1C(=O)C2C3C=CC(C3)C2C1=O)NCCc1ccccc1Cl (stereo not given)	4.3%	?	-10%	7%	-8%	?	12%	31%[activator]
Cc1ccc(-n2c3nc(=O)[nH]c(=O)c-3cc3c(C)nn(-c4ccccc4)c32)cc1C	-0.1%	-18%[46.1 µM]	.	4%	.	.	-14%[46.1 µM]	-1%
CCC(C)N(C(=O)CSc1nnc(-c2ccco2)n1C)C1CCS(=O)(=O)C1 (stereo not given)	.	17%	.	.	-3%	2%	-2%[46.1 µM]	-20%
Cn1c(=O)c2c(nc(Cl)n2CC(=O)N2CCCCC2)n(C)c1=O	.	-1%	.	.	34%	2%	5%[46.1 µM]	-1%
O=C(CCCN1C(=O)/C(=C\c2cccs2)SC1=S)NNC(=O)c1ccncc1	.	?	5%	.	6%	3%	-27%[46.1 µM]	11%
COC(=O)c1ccccc1S(=O)(=O)N1CCCC(c2nc3c(nnn3Cc3ccc(C)cc3)c(=O)[nH]2)C1 (stereo not given)	.	?	8%	.	?	3%	-2%[46.1 µM]	-22%
Cc1nn(C)c2c1c(-c1ccccc1)cc(=O)n2Cc1ccccc1Cl	-3.0%	-6%[46.1 µM]	.	-14%	.	.	.	-18%
CC1CCN(c2c([N+](=O)[O-])nn(-c3ccc4c(c3)OCCO4)[n+]2[O-])CC1	-4.5%	-1%	-4%	5%	0%	4µM*	28%	-24%
Cc1nc2cc(C(F)(F)F)ccc2n1C1CCN(Cc2nnnn2CCc2ccccc2)CC1	-7.7%	?	-40%	?	1%	-6%	?	?
O=S(=O)(c1ccc(Cl)cc1)N1CCn2c1nc1ccccc12	1.9%	23%	?	-4%	-14%	3%	6%	.
O=C(NCc1n[nH]c(=S)n1-c1ccc(Cl)c(Cl)c1)c1ccc(S(=O)(=O)N2CCCCC2)cc1	.	0%[46.1 µM]	8%	.	5%	-1%	19%[46.1 µM]	3%
CCCCCCN1Cc2ccccc2C1	5.7%	-2%	9%	-2%	0%	-1%	?	-8%
COc1cc(C(C)=O)ccc1Oc1ccc(S(=O)(=O)N2CCOCC2)cn1	.	-2%	.	.	2%	-3%	4%	?
CCc1cc2c(=O)c(-n3cnc4ccccc43)coc2cc1O	-2.7%	-3%	-59%	1%	21%	3%	-1%	2%
COC(=O)c1ncccc1SC	-3.0%	6%	17%	14%	-16%	10%	-2%	-9%
Cc1nc(N2CCN(S(=O)(=O)c3ccc(Br)cc3)CC2)c2c(C)c(C)sc2n1	.	24%[46.1 µM]	-7%	.	-2%	-1%	?	?
CCCN(CCC)C(=O)Cn1c(=O)n(CCCC(=O)NCc2ccco2)c(=O)c2sccc21	.	-26%[46.1 µM]	.	.	-3%	-2%	-7%[46.1 µM]	-6%
Cn1cccc1/C=N/NC(=O)CSc1nc2ccccc2n1C	.	0%	-1%	.	4%	-2%	13%	-14%
O=C(CN1CCOC1=O)N1CCCC(N2CCN(c3cccc(C(F)(F)F)c3)CC2)C1 (stereo not given)	.	.	4%	.	-1%	5%	.	23%
Cc1cc(OCC(=O)NCCO)ccc1Cl	0.7%	7%	8%	-1%	6%	28%	13%	24%
Cc1ccc2c(c1)C(c1ccc(N3CCOCC3)cc1)=NNC(c1cccs1)=N2	-5.3%	-3%	12%	-4%	4%	0%	-7%	21%
COc1ccc(NC(=O)N2CCN(c3ccc([N+](=O)[O-])cc3)CC2)cc1	.	16%	2%	.	-21%	-1%	22%[46.1 µM]	-16%
Cc1cccc(S(=O)(=O)Nc2nc3ccccc3nc2NCc2ccc3c(c2)OCO3)c1	-4.6%	-12%	18%	?	10%	6%	-9%	-10%
CC1CC(C)CN(C(=S)Nc2ccc(SC(F)F)cc2)C1 (stereo not given)	-9.5%	1%	-4%	-14%	-24%	-6%	-1%	13%
CC(=O)c1c(C)[nH]c(C(=O)NCc2ccccn2)c1C	2.8%	-2%	-4%	-8%	-12%	3%	-2%	49%[activator]
Cc1cccc(CNC(=O)CCCN2C(=O)CCn3nc(-c4cccn4C)cc32)c1	-2.0%	0%[46.1 µM]	.	?	.	.	.	10%
O=C(c1ccccn1)N1N=C2/C(=C/c3ccccc3)CCCC2C1c1ccccc1 (stereo not given)	-12%	-29%	3%	-24%	5%	-16%	-15%	-22%
O=C(c1ccc(F)cc1)N1CCCC(N2CCN(Cc3ccc4c(c3)OCO4)CC2)C1 (stereo not given)	.	.	1%	.	4%	?	.	?
Cc1ccc(CNC(=O)c2coc(=O)c3ccccc23)o1	-24%	0%	-4%	-16%	0%	0%	5%	-17%
CCN(CC)C(=O)C1CCN(S(=O)(=O)c2ccc(C3CNC(=O)C3)cc2)CC1 (stereo not given)	-0.6%	.	-5%	7%	18%	-3%	.	-13%
COc1ccc2cc(CN(CCCN3CCOCC3)Cc3nnnn3C3CCCC3)c(=O)[nH]c2c1	-5.0%	-5%	-9%	15%	-2%	-3%	?	.
Cc1[nH]c2ccccc2c1CN1CCN(c2ccccn2)CC1	.	7%	-2%	.	0%	-7%	-21%[46.1 µM]	-8%
Cc1c(N=C2N=C(NC(=O)c3ccc(F)cc3)c3ccccc32)c(=O)n(-c2ccccc2)n1C	.	10%	-4%	.	-16%	1%	?	28µM*
COc1ccc(N2CCN(S(=O)(=O)c3ccc4c(c3)CC(C)N4C(=O)C3CC3)CC2)cc1 (stereo not given)	.	-2%[46.1 µM]	6%	.	11%	5%	12%[46.1 µM]	-22%
O=C(COC(=O)Cc1ccccc1)Nc1cc(S(=O)(=O)N2CCCCC2)ccc1Cl	.	16%	.	.	-5%	-1%	-1%	-4%
Cc1ccc(N(Cc2cc3ccc(C)cc3[nH]c2=O)C(=O)c2ccco2)cc1	.	.	2%	.	2%	1%	.	1%
COc1ccc(CN2C(=O)c3ccccc3C(/C=N\OCc3ccc(C)cc3)C2=O)cc1 (stereo not given)	-0.3%	?	20%	-27%	3%	4%	?	0%
CCC(=O)NC(=S)Nc1ccc(NC(=S)NC(=O)c2ccc(C)cc2)cc1	.	.	-2%	.	?	0%	.	34%[activator]
O=C(CSc1nc2c([nH]c3ccccc32)c(=O)n1-c1ccc(F)cc1)NC1CCCCC1	2.1%	0%[46.1 µM]	.	-8%	.	.	.	-26%
Cc1ccc(NC(=O)CSc2nccn2C2CCCC2)cc1Cl	-4.6%	13%[46.1 µM]	.	?	.	.	.	57%[activator]
O=C(c1cccs1)N1CCCC(c2nc3c(nnn3Cc3ccccc3)c(=O)[nH]2)C1 (stereo not given)	.	.	3%	.	7%	-4%	.	-25%
c1cc2c(cc1-c1[nH]ncc1CN1C[C@H]3CC[C@H]1C3)OCO2	.	10%	-1%	.	-8%	0%	9%[46.1 µM]	-4%

Additional records follow.
SMILES	Cruzain inh Det	LASV entry inh	NS1 inh	Cruzain inh noDet	RE007 growth inh	SARS PLpro yeast	Marburg entry inh	2A StopGo
CCOC(=O)CNC(=O)CSc1nc2nc(C)c(Br)cc2[nH]1	-5.6%	16%	6%	0%	4%	-8%	-7%	3%
O=c1[nH]c2ccccc2c2nc3ccccn3c12	-1.9%	9%	-165%	-6%	5%	-23%	-2%	28%
COc1cc(/C=N/n2cnnc2)ccc1OC(=O)c1cccnc1	4.4%	22%	-7%	-8%	8%	2%	2%	-13%
Cn1cccc1CNC(=S)Nc1ccccc1F	.	-28%	.	.	6%	1%	5%[46.1 µM]	24%
CC(C)NC(=O)CSc1nc2ccccc2n1CC(=O)N(C(C)C)C(C)C	.	8%[46.1 µM]	.	.	-6%	-5%	2%[46.1 µM]	39%[activator]
